Screening data as filed in PubChem BioAssay.
GIV-Gai inh: inhibitors of GIV peptide binding to Galpha-i3, primary screen, biochemical, fluorescence polarization, FITC-GIV GBA peptide, rat Galphai3; 90 min; hits give low values; scaled: aluminum fluoride 0%, vehicle 100%; percent of control (FP), % (no concentration beside the values); Guanine nucleotide-binding protein G(i) subunit alpha-3 (Rattus norvegicus), P08753; 210,000 tested, 0.42% active; AID 1224905, 2016;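 active means replicate mean at 85% of control or lower, very high polarization wells dropped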;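 further: wells of about 15 µL received 100 nL stock; the first replicate is given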
Target sequence (P08753 whole entry, looked up): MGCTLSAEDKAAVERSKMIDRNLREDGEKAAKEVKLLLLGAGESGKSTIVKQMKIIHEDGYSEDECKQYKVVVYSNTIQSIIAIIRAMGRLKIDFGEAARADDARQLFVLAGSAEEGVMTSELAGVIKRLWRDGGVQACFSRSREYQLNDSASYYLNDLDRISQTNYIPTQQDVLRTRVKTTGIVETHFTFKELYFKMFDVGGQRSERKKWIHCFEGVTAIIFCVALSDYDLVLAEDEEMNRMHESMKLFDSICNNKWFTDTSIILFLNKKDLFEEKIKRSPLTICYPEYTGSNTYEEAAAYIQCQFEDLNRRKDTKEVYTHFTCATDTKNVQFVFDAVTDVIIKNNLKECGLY
Sa growth inh: S. aureus growth inhibition at 42 and 30 °C, primary screen, LtaS inhibitor project, RN4220, two temperatures; OD600, 20 h, 42 °C; hits give low values; relative growth, % (test concentration not listed); 170,000 tested, 0.53% active; AID 720641, 2013;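 active means growth at 42 °C up to 50% and 20 or more points under that at 30 °C, or under 10% at both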;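 further: 300 nL library stock went into each well; scaled to the means of positive and negative controls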
HCMV UL50-53 inh: inhibitors of HCMV UL50-UL53 interaction, biochemical, HTRF | 190,000 tested, 0.15% active | normalized percent inhibition | AID 1918969, 2023 | inhibition, % (concentration not given with the values);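 active means both replicates at 50% or more, plus weaker picks with an unusually low signal ratio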;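 further: stock transfer was 100 nL into about 20 µL; 0% = negative control wells and 100% = wells with untagged competitor protein; inactives centre near -12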
Sa growth inh second temp: second read-out of Sa growth inh, no call of its own (marks repeat the call); relative growth, %; measured here: growth at 30 °C;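 optical density after 20 h as mean of two plates; 100% = untreated growth and lower means inhibition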
* = called active by the depositor; . = not tested or not shown; & = joins results of further samples. Compounds as they come. Share with any hit: about 0.8%.

SMILES	GIV-Gai inh	Sa growth inh	Sa growth inh second temp	HCMV UL50-53 inh
CC(C)CCNC(=O)CCCCn1c(=O)c2ccccc2n(CC(=O)Nc2cc(F)ccc2F)c1=O	104.8	.	.	-17.7
O=C(NCc1ccccc1F)c1ccc(CN2CC(=O)N3CCCCC3C2=O)cc1 (configuration not stated)	109.4	121.2	95.9	.
N#Cc1ccc(NC(=O)c2cc(C3CC3)nn2-c2ccccc2)cc1	.	113.3	95.1	-17.4
Cc1ccc(NC(=O)C2CCN(C(=O)c3ccc(-c4noc(C)n4)cc3)CC2)nc1	106.6	.	.	0.1
O=C(c1csc(S(=O)(=O)NCc2ccccn2)c1)N1CCCC1	103.2	.	.	-32.7
CCOc1ccc(Oc2cc(NC(=O)c3ccc(F)cc3)cc(NC(=O)c3ccc(F)cc3)c2)cc1	.	83.3	100.5	-2.4
CCOc1ccc(C(=O)OCC(=O)N2CCCCC2)cc1	.	85.5	95.1	-1.0
Cn1c(N)c(C(=O)CN2CCN(S(=O)(=O)/C=C/c3ccccc3)CC2)c(=O)n(C)c1=O	.	95.2	99.0	-33.1
O=S(=O)(Nc1ccc(-c2ccc(N3CCCC3)nn2)cc1)c1ccc(C(F)(F)F)cc1	104.6	105.4	98.7	.
Cc1ccc(NC(=O)Cn2c(=O)/c(=C/c3ccc(N(C)C)cc3)s/c2=C\C#N)cc1	.	90.6	101.7	9.5
CCC1CCCCN1C(=O)Cn1c(=O)n(-c2ccccc2C(F)(F)F)c(=O)c2c(C)c(C(=O)N(C)C)sc21 (configuration not stated)	103.9	106.4	85.9	.
O=S(=O)(c1ccccc1)N1CCC(N2CCCCC2)CC1	96.6	92.0	87.2	.
CCOc1ccccc1NC(=O)CSc1nc2cc(OC)c(OC)cc2c2nc(CCn3c(C)nc4ccccc43)nn12	101.3	100.5	96.3	-9.2
CCOC(=O)c1c(NS(=O)(=O)c2ccc(Br)cc2)sc2c1CCC(C)C2 (configuration not stated)	.	91.5	72.7	-21.8
N=C1/C(=C/c2ccc(SC3CCCCC3)o2)C(=O)N=C2SC=CN12	182.7	8.4*	1.0*	.
CCOc1ccccc1NC(=O)Cn1c(=O)n(Cc2ccc(C(=O)NCCCOC)cc2)c(=O)c2ccccc21	106.6	107.0	89.6	-23.2
COc1ccc(-c2cc(C(=O)NCC3CCCO3)on2)cc1OC (configuration not stated)	98.9	95.0	86.5	-15.8
Cc1nc(C)c(C(=O)Nc2ccc(C)c(C)c2)s1	106.3	.	.	-14.9
O=C(Nc1ccc(N2CCN(c3ccccc3F)CC2)cc1C(=O)O)c1ccccc1Cl	99.4	.	.	-22.6
O=C(NCCc1ccccc1)c1ccc2c(c1)sc1nc(-c3ccccc3)cn12	101.5	115.0	78.4	.
CC(C)OCCCn1c(=O)c2cc(Cl)ccc2n2c(SCc3c(F)cccc3Cl)nnc12	98.0	.	.	9.6
O=C(NCc1ccccc1)c1cc(-c2ccco2)on1	105.0	93.4	94.2	.
O=C(CSc1nc2ccccc2nc1Cc1ccccc1)N1CCCCC1	96.2	91.9	67.5	.
CCCn1c(N)c(C(=O)COC(=O)c2cc(-c3ccc(C)o3)nc3ccccc23)c(=O)[nH]c1=O	.	81.5	89.7	-27.3
O=C(CC(NC(=O)C(F)(F)F)c1ccccc1)Nc1nnc(CCc2ccccc2)s1 (configuration not stated)	107.6	.	.	-6.4

The results go on.
SMILES	GIV-Gai inh	Sa growth inh	Sa growth inh second temp	HCMV UL50-53 inh
O=c1cc(-c2cccs2)oc2ccc(Cl)cc12	.	118.4	91.6	-18.5
COC(OC)c1ccc(C#N)c(SCC(=O)c2ccccc2)n1	104.6	105.5	85.4	-117.5
Cc1ccc(N2CCN(C(=O)c3ccc4c(Cl)c5c(nc4c3)CCCC5)CC2)c(C)c1	100.3	100.8	83.9	-25.5
O=C1c2ccc(-c3nc4ccc(Br)cc4c(=O)o3)cc2C(=O)N1C1CCCCC1	.	100.6	99.9	4.1
N=C(N=C(N)N)N1CCCc2ccccc21	100.8	103.6	95.7	-5.5
CN(N)c1cc(=O)n(C)c(=O)[nH]1	63.6*	86.5	72.1	-48.8
CC(=O)NS(=O)(=O)c1ccc(NC(=O)c2ccccc2C(=O)O)cc1	105.6	85.9	78.0	-40.6&-33.0
O=C(c1ccccc1)C1CCN(C(=O)CS(=O)(=O)c2ccc(Cl)cc2)CC1	102.2	98.1	103.5	1.1
c1coc(CNc2nc(N3CCCCC3)nc(N3CCOCC3)n2)c1	97.3	.	.	-17.8
CC1C2CC(CC1(C)C)N(C(=O)c1ccc(N3C(=O)c4ccccc4C3=O)cc1)C2 (configuration not stated)	.	86.8	85.6	-23.0
Cc1ccc(-c2noc(CCC(=O)N3CCCc4ccccc43)n2)cc1	101.9	95.1	86.0	2.7
Cc1ccc(C(C)C)c(OCCCn2c(=O)oc3ccccc32)c1	101.2	87.0	93.0	11.4
C1Cc2nnc3c4c(nnc(c24)C1)CCC3	104.7	95.6	91.5	-15.3
CCOc1ccc(NC(=O)C2C3C=CC4(CN(C(C(=O)OC)C(C)C)C(=O)C24)O3)cc1 (configuration not stated)	100.3	103.3	96.4	1.5
O=C(O)c1ccc(-c2cc3ccccc3oc2=O)cc1	105.5	91.5	90.6	-49.6
O=c1cc(O)c2c(=O)n(Cc3ccccc3)c3ccccc3c2o1	104.9	102.6	81.0	-8.6
Cc1ccc2nc(Cl)c3cc(C(=O)N4CCCCC4C)sc3c2c1 (configuration not stated)	102.2	104.3	84.3	-13.9
C=CCNC(=O)C1(O)c2ccccc2NC(=O)N1c1ccccc1 (configuration not stated)	.	86.0	94.7	6.8
O=C(Nc1cccc(-c2noc(-c3ccccc3)n2)c1)c1cccs1	99.3	105.1	96.7	-4.6
CC(C)N/C=C1/C(=O)c2sccc2N(Cc2ccccc2)S1(=O)=O	102.9	107.0	87.0	-32.0
O=S(=O)(Cc1ccc(Cl)cc1)c1ccc(NCCc2c[nH]c3ccccc23)nn1	97.9	.	.	-7.2
Cc1csc2nc(COC(=O)COc3ccccc3F)cc(=O)n12	103.5	69.8	75.3	.
COC(=O)c1ccc(NC(=O)CSc2nccn2C)cc1	.	86.7	88.6	-10.5
Cc1nc2c(C(=O)NCc3ccccc3Cl)cnn2c(C)c1Cc1c(F)cccc1Cl	101.9	130.2	88.7	.
CC1CCN(C(c2nnnn2Cc2ccccc2)C(C)C)CC1 (configuration not stated)	103.2	102.6	81.9	-6.6

Next part.
SMILES	GIV-Gai inh	Sa growth inh	Sa growth inh second temp	HCMV UL50-53 inh
COC(=O)CN1C(=O)C(=Cc2ccc(N(C)C)cc2)SC1=S	-41.9*	89.3	79.5	.
O=C(Cn1ncc2c([nH]c3ccccc32)c1=O)NCC1CCN(Cc2ccc(F)cc2)CC1	103.4	101.9	93.0	.
COc1cc(NC(=O)CSc2nc(-c3cccs3)cc(C(F)(F)F)n2)cc(OC)c1OC	103.6	79.7	78.3	-1.9
O=C(NCCN1CCOCC1)C1CCC(Cn2c(=S)[nH]c3ccccc3c2=O)CC1 (configuration not stated)	104.2	108.0	87.4	.
CS(=O)(=O)c1ccc(-c2nn[nH]n2)cc1	101.0	110.8	101.8	10.2
Cc1cccc(-c2noc(CNC(=O)CC(C)(C)C)n2)c1	125.8	88.4	77.9	-10.6
Cn1nc(C(=O)Nc2ccc(Br)cc2)cc1C(F)(F)F	104.4	.	.	-6.6
Cc1ccc(CSC2=Nc3ccccc3C3=NC(CC(=O)NCc4ccc5c(c4)OCO5)C(=O)N23)cc1 (configuration not stated)	102.8	59.2	63.8	.
COC(CNC(=O)CN1CCN(Cc2ccc(F)cc2Cl)C1=O)OC	103.2	103.8	88.2	-16.1
O=C(NCc1ccccc1)c1cc(-c2ccco2)nc2ccccc12	.	98.1	93.2	-19.7
Fc1cccc(-c2nnn3c2nc(Cl)c2ccccc23)c1	103.8	85.2	93.9	1.1
Cc1cc(F)ccc1-n1nnc(C(N)=O)c1C	103.1&101.1	87.5	88.5	1.5&-28.4
O=C(c1ccc2c(c1)N(Cc1ccccc1)C(=O)c1ccccc1S2(=O)=O)N1CCc2ccccc21	105.7	101.8	91.8	-27.6
Cc1ccc2c(c1)sc1nc(=O)ccn12	111.4	104.4	100.1	0.7
Cc1sc2c(c1C)CN(Cc1ccccc1)CN2C(=O)c1ccco1	.	100.8	75.7	-51.3
O=C(NCC1CCCO1)Nc1c[nH]c2ccccc2c1=O (configuration not stated)	104.5	.	.	-49.9
Fc1ccc(COc2ccccc2CNC2CCCC2)cc1	.	72.8	81.4	-4.4
CCOC(=O)c1ccc(NC(=O)CSc2ccc(-c3sc(C)nc3C)nn2)cc1	95.4	98.2	86.2	.
Cc1ccc2[nH]c(=O)c(CCC(=O)O)c(C)c2c1	.	96.2	77.7	-3.0
Cc1ccc(Nc2nc(N)nc(CSc3nc4ccccc4s3)n2)cc1	104.8	79.7	86.5	-38.0
O=C1CN(c2nc(-c3ccc(Cl)cc3)cs2)CCN1	.	110.8	82.2	-4.9
O=C1Nc2ccccc2C1Cc1cc2ccccc2o1 (configuration not stated)	103.6	.	.	-17.6
O=C(NC1(O)C(=O)c2ccccc2C1=O)c1ccccc1	52.3*	86.8	83.3	.
Cc1cc(C)c(OCC(=O)N(Cc2ccc(N(C)C)cc2)Cc2ccco2)c(C)c1	103.8	88.9	57.8	-3.6
Cc1ccc(-c2cc(C(=O)N3CCN(c4c(C)n(C)c(=O)n(C)c4=O)CC3)c3ccccc3n2)cc1C	103.1	.	.	-54.9

4 of the compounds above, bar-delimited.
smiles | GIV-Gai inh | Sa growth inh | Sa growth inh second temp | HCMV UL50-53 inh
O=C(NCc1ccccc1)c1cc(-c2ccco2)nc2ccccc12 | . | 98.1 | 93.2 | -19.7
COc1cc(NC(=O)CSc2nc(-c3cccs3)cc(C(F)(F)F)n2)cc(OC)c1OC | 103.6 | 79.7 | 78.3 | -1.9
CS(=O)(=O)c1ccc(-c2nn[nH]n2)cc1 | 101.0 | 110.8 | 101.8 | 10.2
O=C(NCC1CCCO1)Nc1c[nH]c2ccccc2c1=O (configuration not stated) | 104.5 | . | . | -49.9

Additional entries
SMILES	GIV-Gai inh	Sa growth inh	Sa growth inh second temp	HCMV UL50-53 inh
CC(NC(=O)C1CCN(C(=O)N2CCOc3ccc(Cl)cc32)CC1)c1ccccc1 (configuration not stated)	104.0&99.9	115.3	91.3	-5.2&4.0
O=C(Nc1ccc(N2CCN(c3ccc(F)cc3)CC2)c(C(=O)O)c1)c1cccs1	103.3	118.7	91.1	.
CCn1c(=O)c(-c2noc(CCC(=O)N3CCOCC3)n2)nn(-c2ccccc2)c1=O	103.8	.	.	-76.4
CCOc1ccccc1CNC(=O)c1ccc2nc(CCc3ccccc3)oc2c1	95.8	76.0	89.7	.
N#C/C(=C\c1cccnc1)C(=O)Nc1ccccc1	138.3	83.5	87.5	-23.5
COc1ccc(CCNC(=O)CCc2cn(-c3ccccc3)nc2-c2ccc(C)cc2)cc1OC	97.8	.	.	-15.4
Cc1nc(-n2[nH]c(C)c(CCC(=O)Nc3ccc(Br)cc3)c2=O)sc1C	93.2	.	.	-11.3
CCOC(=O)c1ccc(-c2ccc(/C=C(\C#N)C(=O)NC(C)(C)C)o2)cc1	94.0	81.0	68.1	-33.3
COc1cc(O)ccc1-c1nc2cc(C)ccn2c1Nc1ccccc1C	103.5	91.5	63.0	8.1
Cn1cc(Br)c(=O)n(C)c1=O	107.5	100.4	94.9	6.0
CCN(CC)C(=O)Cc1ccc(Br)cc1	.	98.8	90.4	0.9
COc1ccc(-c2nc(CN3CCN(C(=O)c4ccc(N(C)C)cc4)CC3)c(C)o2)cc1	106.2	.	.	-22.1
O=C(c1sc2ccccc2c1Cl)N1CCN(c2ccc([N+](=O)[O-])cc2Cl)CC1	107.6	.	.	-22.9
C[C@H]1CC2C3CCC4=CC(=O)C=C[C@]4(C)[C@@]3(Cl)[C@@H](O)C[C@]2(C)[C@@]1(O)C(=O)CO (some centres not stated)	104.6	.	.	-8.1
CCOC(=O)c1cc(C)n(CC2CCC(C(=O)Nc3ccc(OCC)cc3)CC2)c1C (configuration not stated)	103.6	82.6	85.7	.
Cc1nn2c(=O)cc(COC(=O)Cc3ccccc3)nc2s1	106.3	112.9	92.0	.
Cc1nn(CC(=O)Nc2ccc3c(c2)nc(CCNC(=O)C2CC2)n3C)c(=O)c2ccccc12	105.2	.	.	-22.5
CCCCNC(=O)c1cnc2sc(N3CCCCCC3)nn2c1=O	106.2	113.0	87.4	.

Quoted at random: five compounds from above
SMILES	GIV-Gai inh	Sa growth inh	Sa growth inh second temp	HCMV UL50-53 inh
Cc1nn(CC(=O)Nc2ccc3c(c2)nc(CCNC(=O)C2CC2)n3C)c(=O)c2ccccc12	105.2	.	.	-22.5
COc1ccc(-c2nc(CN3CCN(C(=O)c4ccc(N(C)C)cc4)CC3)c(C)o2)cc1	106.2	.	.	-22.1
O=C(c1sc2ccccc2c1Cl)N1CCN(c2ccc([N+](=O)[O-])cc2Cl)CC1	107.6	.	.	-22.9
N#C/C(=C\c1cccnc1)C(=O)Nc1ccccc1	138.3	83.5	87.5	-23.5
COc1ccc(CCNC(=O)CCc2cn(-c3ccccc3)nc2-c2ccc(C)cc2)cc1OC	97.8	.	.	-15.4
